Vaccinia stage = blocks a specific stage of Vaccinia orthopoxvirus infection; Vaccinia-infected cells, mCherry/Venus stage reporter fluorescence; active compounds read low; some inactives read as strong as hits; activity change (mCherry), % (concentration not given with the values); 89,000 tested, 0.01% active;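 active means mCherry past -33% and 40 or more points under the early reporter, replicates agreeing; inconclusive means past -33% without that gap or agreement; tested in A549 cells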;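 further: scaled between vehicle wells and reference inhibitor wells; 23 nL library stock went into each well; one replicate is shown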
Vaccinia stage Venus = further read-out of Vaccinia stage, marked with its call; activity change (Venus), %; measured here: Venus reporter, other viral stage;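 negative = less Venus signal; first of two replicates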
An asterisk follows results filed as active; ? = inconclusive; · = no result given; & = joins results of further samples. These rows are one share of the data; rates above refer to the full screens.

SMILES	Vaccinia stage	Vaccinia stage Venus
CCC(=O)N1CC2(C1)CN(S(=O)(=O)c1ccccc1)[C@@H](CO)c1[nH]c3cc(OC)ccc3c12	21.0	3.1
C[C@@H]1CN([C@@H](C)CO)C(=O)c2cccc(NC(=O)Nc3cccc4ccccc34)c2O[C@H]1CN(C)C(=O)Nc1ccc(F)cc1	0.5	5.1
C[C@@H]1CCCCO[C@@H](CN(C)C(=O)C2CCCCC2)[C@H](C)CN([C@@H](C)CO)C(=O)c2cc(NC(=O)Cc3ccccc3)ccc2O1	-32.1	-19.7
COc1ccccc1NC(=O)N(C)C[C@@H]1Oc2cc(Br)ccc2S(=O)(=O)N([C@H](C)CO)C[C@H]1C	-23.5	-20.2
CN1CCN(C(=O)[C@H]2[C@H](CO)[C@H]3Cn4c(ccc(-c5cccnc5)c4=O)[C@H]3N2CC2CC2)CC1	16.8	16.1
C/C=C/c1ccc([C@@H]2[C@H](C#N)N(c3ncc(CC)s3)[C@H]2CO)cc1	-15.6	-12.6
O=S(=O)(c1ccccc1)N1[C@@H](CO)[C@@H]2c3ccccc3NC[C@@H]21	14.5	13.2
CC(C)NC(=O)Nc1ccc2c(c1)CC(=O)N([C@@H](C)CO)C[C@@H](C)[C@H](CN(C)Cc1ccc(-c3ccccc3)cc1)O2	?	·
COCC(=O)N1C[C@H]2[C@@H](c3ccccc31)[C@H](CO)N2C(=O)Nc1ccccc1F	8.4	8.9
C[C@@H]1CN([C@H](C)CO)S(=O)(=O)c2ccc(-c3cncnc3)cc2O[C@@H]1CN(C)C(=O)Cc1ccncc1	14.9	9.0
COc1ccc(S(=O)(=O)N[C@@H]2CC[C@@H](CC(=O)NCCc3ccncc3)O[C@@H]2CO)cc1	11.6	6.4
Cc1noc(C)c1NC(=O)Nc1ccc2c(c1)CC(=O)N([C@@H](C)CO)C[C@H](C)[C@H](CN(C)Cc1ccc(C(=O)Nc3ccccc3N)cc1)O2	4.9	-4.3
C[C@H](CO)N1C[C@H](C)[C@@H](CN(C)Cc2ccc(C(=O)Nc3ccccc3N)cc2)Oc2ccc(NC(=O)CCN3CCOCC3)cc2C1=O	8.4	6.4
Cc1ccc(S(=O)(=O)N(C)C[C@@H]2OCCCC[C@H](C)Oc3ccc(NC(=O)NC4CCCCC4)cc3C(=O)N([C@H](C)CO)C[C@H]2C)cc1	-12.9	-11.2
C[C@@H]1CN([C@@H](C)CO)C(=O)c2cc(NC(=O)CCN3CCOCC3)ccc2O[C@H]1CN(C)S(=O)(=O)c1cccs1	21.0	7.9
O=C(Nc1ccccc1)N[C@@H]1CC[C@@H](CCNC(=O)c2ccccc2F)O[C@@H]1CO	-5.7	-4.7
C[C@H](CO)N1C[C@H](C)[C@@H](CN(C)S(=O)(=O)c2ccc(F)cc2)Oc2ccc(NC(=O)C3CCCCC3)cc2CC1=O	-11.9	-8.8
CN(C)CCCNC(=O)C[C@@H]1CC[C@@H](NC(=O)Cc2cccnc2)[C@H](CO)O1	0.9	8.1
C[C@H](CO)N1C[C@H](C)[C@H](CN(C)Cc2ccc(Oc3ccccc3)cc2)Oc2ccc(NS(=O)(=O)c3ccccc3)cc2CC1=O	?	·
C[C@@H]1CN([C@@H](C)CO)C(=O)c2cc(Br)cnc2O[C@H]1CN(C)C(=O)Cc1ccccn1	7.3	5.8
CCCNC(=O)N1CC2(C1)CN(C(=O)c1ccccc1)[C@@H](CO)c1[nH]c3cc(OC)ccc3c12	0.8	-2.4
C[C@@H]1CN([C@H](C)CO)C(=O)c2cccc(NS(C)(=O)=O)c2O[C@H]1CN(C)C(=O)Nc1ccccc1	23.8	7.0
O=C(C[C@H]1C[C@@H]2c3cc(NC(=O)Nc4ccccc4F)ccc3O[C@@H]2[C@H](CO)O1)NC1CCCC1	2.4	2.6
C[C@H](NC(=O)[C@@H]1[C@@H](CO)[C@@H]2Cn3c(cccc3=O)[C@H]1N2Cc1ccccc1)c1ccccc1	10.8	7.1
COc1ccc(NC(=O)Nc2ccc3c(c2)CC(=O)N([C@@H](C)CO)C[C@@H](C)[C@H](CN(C)C(=O)Nc2ccccc2)O3)cc1	26.9	17.3
Cc1ccc(S(=O)(=O)NCC[C@@H]2CC[C@H](NC(=O)Nc3ccccc3F)[C@@H](CO)O2)cc1	-6.7	-6.5
COc1ccccc1-c1cnc2c(c1)C(=O)N([C@H](C)CO)C[C@@H](C)[C@@H](CN(C)C(=O)c1ccncc1)O2	15.4	6.3
CO[C@H]1CN(C)C(=O)c2cccc(C#N)c2OC[C@H]2O[C@@H](CC[C@H]2OC)CCN(C)C(=O)[C@H]1C	13.3	4.8
N#C[C@H]1[C@@H](c2ccc(-c3cccc(F)c3)cc2)[C@H](CO)N1C(=O)NC1CCCC1	-23.9	-17.6
O=C(Nc1cccc(F)c1)N1C[C@H]2[C@@H](c3ccccc31)[C@@H](CO)N2C(=O)Cc1ccccn1	-15.3	-0.9
CO[C@H]1CN(C)C(=O)c2ccc(NS(=O)(=O)c3cccc(F)c3)cc2OC[C@H](C)N(C(=O)Cc2cccnc2)C[C@H]1C	8.6	3.5
Cc1ccc(S(=O)(=O)N(C)C[C@H]2Oc3ccc(N(C)C)cc3CC(=O)N([C@@H](C)CO)C[C@H]2C)cc1	7.3	-0.9
C[C@H]1CN([C@@H](C)CO)C(=O)Cc2cc(NC(=O)Nc3ccccc3)ccc2O[C@H]1CN(C)Cc1ccc(C(=O)O)cc1	6.8	4.9
CO[C@H]1CN(C)C(=O)c2cc(NS(=O)(=O)c3ccc(Oc4ccccc4)cc3)ccc2OC[C@@H](C)NC[C@@H]1C	-33.5	-22.7
COC(=O)[C@@H]1[C@@H](CO)[C@@H]2Cn3c(ccc(-c4ccccc4)c3=O)[C@H]1N2CCc1ccccc1	-2.0	0.5
CN(C)CCCNC(=O)C[C@@H]1CC[C@H]2[C@H](COc3ccc(NC(=O)c4ccccc4F)cc3C(=O)N2C)O1	20.7	10.4
C[C@@H]1CCCCO[C@@H](CN(C)C(=O)c2ccccc2)[C@@H](C)CN([C@H](C)CO)C(=O)c2cc(N(C)C)ccc2O1	14.7&23.6	10.7&5.4
O=C(C[C@H]1CC[C@@H]2[C@H](COC[C@@H](O)CN2C(=O)Nc2cc(Cl)cc(Cl)c2)O1)NCC1CCCCC1	?	·
C[C@H]1CN([C@@H](C)CO)C(=O)c2cc(C#CCc3ccccc3)cnc2O[C@@H]1CN(C)Cc1ccc(C(=O)O)cc1	-5.6	-4.2
O=C(C[C@H]1CC[C@@H]2[C@H](COC[C@@H](O)CN2Cc2ccccc2)O1)NCCc1ccccc1	-3.6	1.6
O=C(c1ccccn1)N1C[C@@H]2[C@H](c3ccccc31)[C@@H](CO)N2C(=O)C1CCCCC1	12.4	12.2
C[C@@H]1CN([C@@H](C)CO)C(=O)c2cccc(NS(C)(=O)=O)c2O[C@@H]1CN(C)Cc1ccc(Cl)c(Cl)c1	-14.4	-8.5
OC[C@@H]1[C@H](c2ccc(-c3cccnc3)cc2)[C@H]2CN(CC3CC3)CCCCN12	10.8	5.7
NC(=O)[C@@H]1[C@H]2C(=O)O[C@H](c3ccccc3)[C@H](c3ccccc3)N2[C@H](c2ccccc2OCCO)[C@@]12C(=O)Nc1ccccc12	?	·
Cn1cnc(CCNC(=O)C[C@H]2CC[C@@H]3[C@H](COC[C@@H](O)CN3C(=O)C3CCCC3)O2)c1	10.4	13.1
C[C@@H]1CN([C@@H](C)CO)C(=O)c2cccc(NS(=O)(=O)c3ccccc3)c2O[C@@H]1CN(C)Cc1ccc(C(=O)O)cc1	14.1	13.2
C[C@@H]1CN([C@H](C)CO)S(=O)(=O)c2ccc(C#CC(C)(C)O)cc2O[C@H]1CN(C)Cc1ccncc1	3.8	-4.3
O=C(N[C@H]1C=C[C@H](CC(=O)N2CCOCC2)O[C@@H]1CO)c1ccccn1	-7.2	-6.0
C[C@H](CO)N1C[C@H](C)[C@@H](CN(C)Cc2ccncc2)Oc2ncc(C#CC3CCCC3)cc2C1=O	-14.3	-16.2
Cc1ccc(S(=O)(=O)Nc2ccc3c(c2)C(=O)N([C@@H](C)CO)C[C@H](C)[C@@H](CN(C)C(=O)c2ccccc2)OCCCC[C@@H](C)O3)cc1	?	·

(cont.)
SMILES	Vaccinia stage	Vaccinia stage Venus
CO[C@H]1CN(C)C(=O)c2cc(NC(=O)Nc3ccc(F)cc3)ccc2OC[C@H](C)NC[C@H]1C	-1.3	-5.8
COc1ccc(S(=O)(=O)Nc2ccc3c(c2)C(=O)N([C@H](C)CO)C[C@@H](C)[C@@H](CN(C)C)O3)cc1	5.6	12.7
C[C@@H]1CN([C@@H](C)CO)S(=O)(=O)c2ccc(-c3ccncc3)cc2O[C@@H]1CN(C)C(=O)c1cccc(F)c1	23.0	-1.7
O=C(c1cccc(F)c1)N1C[C@@H]2[C@H](c3ccccc31)[C@@H](CO)N2C(=O)c1ccc(F)cc1	7.7	4.8
O=C(C[C@@H]1CC[C@H]2[C@@H](COC[C@@H](O)CN2C(=O)c2ccccc2)O1)NCc1ccc(-c2ccccc2)cc1	-11.4	-9.4
COc1ccc(CN(C)C[C@H]2Oc3ccc(NC(=O)Nc4ccc(OC)cc4)cc3CC(=O)N([C@@H](C)CO)C[C@@H]2C)cc1	-1.3	-3.3
O=C(Nc1ccccc1F)N[C@@H]1CC[C@@H](CCNS(=O)(=O)c2ccc(F)cc2)O[C@H]1CO	-2.2	-9.6
COc1cccc(C(=O)N2C[C@H]3[C@@H](c4ccccc42)[C@H](CO)N3Cc2ccccc2Cl)c1	-23.2	-17.4
N#C[C@@H]1[C@@H](c2ccc(C3=CCCCC3)cc2)[C@H](CO)N1C(=O)NC1CCCC1	-34.5	-24.0
C[C@H](CO)N1C[C@H](C)[C@H](CN(C)C(=O)Nc2ccc(F)cc2)Oc2ccc(NC(=O)CCN3CCOCC3)cc2CC1=O	-3.7	-2.2
CCCN1[C@H](CO)[C@H](c2ccc(C3=CCCCC3)cc2)[C@@H]1CNC(=O)COC	0.9	1.2
COC(=O)[C@H]1[C@H](CO)[C@H]2Cn3c(ccc(/C=C/c4ccccc4)c3=O)[C@H]2N1CCC(F)(F)F	-4.7	3.2
C[C@@H]1CN([C@@H](C)CO)S(=O)(=O)c2ccc(C3=CCCC3)cc2O[C@@H]1CN(C)C(=O)c1ccccc1	19.1	13.6
Cc1ccc(S(=O)(=O)N(C)C[C@@H]2OCCCC[C@@H](C)Oc3ccc(NS(=O)(=O)c4ccc(Cl)cc4)cc3C(=O)N([C@H](C)CO)C[C@@H]2C)cc1	-0.4	-8.6
C[C@@H]1CN([C@H](C)CO)C(=O)c2cc(-c3ccncc3)cnc2O[C@H]1CN(C)C(=O)c1cccc(F)c1	20.0	5.5
COc1ccccc1CNC(=O)C[C@@H]1C[C@@H]2c3cc(NC(=O)Nc4ccccc4F)ccc3O[C@@H]2[C@H](CO)O1	19.3	12.6
C[C@@H]1CCCCO[C@H](CN(C)C(=O)CCCN(C)C)[C@@H](C)CN([C@H](C)CO)C(=O)c2cc(NS(=O)(=O)c3ccc(Cl)cc3)ccc2O1	26.6	5.5
C[C@@H]1CCCCO[C@@H](CN(C)C(=O)C2CCCCC2)[C@@H](C)CN([C@H](C)CO)C(=O)c2cc(NC(=O)Cc3ccccc3)ccc2O1	14.6	-1.3
O=C(C[C@@H]1CC[C@H]2NC[C@H](O)COC[C@@H]2O1)Nc1ccccc1	-0.4	-3.4
CCC(=O)N(C)C[C@H]1Oc2cc(-c3cncnc3)ccc2S(=O)(=O)N([C@H](C)CO)C[C@@H]1C	16.8	11.2

10 entries from above, with values under each structure.
Values in the order – Vaccinia stage	Vaccinia stage Venus
CCCN1[C@H](CO)[C@H](c2ccc(C3=CCCCC3)cc2)[C@@H]1CNC(=O)COC
 : 0.9	1.2
COC(=O)[C@H]1[C@H](CO)[C@H]2Cn3c(ccc(/C=C/c4ccccc4)c3=O)[C@H]2N1CCC(F)(F)F
 : -4.7	3.2
C[C@@H]1CN([C@@H](C)CO)S(=O)(=O)c2ccc(C3=CCCC3)cc2O[C@@H]1CN(C)C(=O)c1ccccc1
 : 19.1	13.6
Cc1ccc(S(=O)(=O)N(C)C[C@@H]2OCCCC[C@@H](C)Oc3ccc(NS(=O)(=O)c4ccc(Cl)cc4)cc3C(=O)N([C@H](C)CO)C[C@@H]2C)cc1
 : -0.4	-8.6
C[C@@H]1CN([C@H](C)CO)C(=O)c2cc(-c3ccncc3)cnc2O[C@H]1CN(C)C(=O)c1cccc(F)c1
 : 20.0	5.5
COc1ccccc1CNC(=O)C[C@@H]1C[C@@H]2c3cc(NC(=O)Nc4ccccc4F)ccc3O[C@@H]2[C@H](CO)O1
 : 19.3	12.6
C[C@@H]1CCCCO[C@H](CN(C)C(=O)CCCN(C)C)[C@@H](C)CN([C@H](C)CO)C(=O)c2cc(NS(=O)(=O)c3ccc(Cl)cc3)ccc2O1
 : 26.6	5.5
C[C@@H]1CCCCO[C@@H](CN(C)C(=O)C2CCCCC2)[C@@H](C)CN([C@H](C)CO)C(=O)c2cc(NC(=O)Cc3ccccc3)ccc2O1
 : 14.6	-1.3
O=C(C[C@@H]1CC[C@H]2NC[C@H](O)COC[C@@H]2O1)Nc1ccccc1
 : -0.4	-3.4
CCC(=O)N(C)C[C@H]1Oc2cc(-c3cncnc3)ccc2S(=O)(=O)N([C@H](C)CO)C[C@@H]1C
 : 16.8	11.2

(list continues)
SMILES	Vaccinia stage	Vaccinia stage Venus
CN(C)CC(=O)N1CC2(C1)[C@H](c1ccccc1)[C@H](CO)N2Cc1cc(F)ccc1F	-7.3	-1.0
Cc1noc(C)c1NC(=O)N(C)C[C@@H]1Oc2ccc(NS(=O)(=O)c3ccc(F)cc3)cc2C(=O)N([C@@H](C)CO)C[C@@H]1C	4.4	2.4
CO[C@@H]1CN(C)C(=O)c2cc(NC(=O)Nc3ccccc3)ccc2OC[C@@H](C)N(C(=O)Nc2c(C)noc2C)C[C@H]1C	13.9	12.0
CC(=O)N1[C@@H]2c3ccc(C4=CCCC4)c(=O)n3C[C@H]1[C@H](CO)[C@H]2C(=O)NC1CCCC1	15.0	12.6
O=C(CC1CC1)N1CC(=O)N2[C@H](CO)[C@H](c3ccc(C#Cc4ccc(F)cc4)cc3)[C@H]2C1	?	·
Cn1cnc(S(=O)(=O)N2CC[C@@H]3[C@@H](CO)Nc4ccc(C#Cc5ccc(F)cc5)cc4[C@@H]32)c1	-6.1	-10.9
